NPYLR7 agonist: mosquito NPYLR7 agonism. HEK293T NPYLR7/Galpha15, GCaMP6s calcium fluorescence. activation, % at 10 µM. AID 1259423. 270,000 tested, 0.15% active; in the data active means activation above about 40%;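 further: 0% = vehicle and 100% = reference agonist at the receptor; some compounds past the cut are filed as inactive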
NPYLR7 agonist max-min: recorded beside NPYLR7 agonist, whose call it bears; activation, %; measured here: Max-Min RFU normalised activation; some inactives read as strong as hits;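 span of the calcium signal over five minutes; 0% = vehicle and 100% = native peptide agonist; compound fluorescence can raise it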
The depositor's hits bear a star; & = joins results of further samples. An excerpt; count on the stated rates, not on these rows.

Second line of a record: NPYLR7 agonist | NPYLR7 agonist max-min
> O=C(c1ccco1)N(Cc1cccc(C(F)(F)F)c1)CC1CC(c2ccccc2Cl)=NO1 (stereo not given)
  -2 | 7
> CCC(C)Cc1c(C)sc2nc(CSc3nnc(C4CC4)n3C)[nH]c(=O)c12 (stereo not given)
  0 | 7
> O=C(NNC(=O)c1cnc2ccccc2n1)c1ccccc1
  -2 | -3
> CSc1cccc(NC(=O)NCC2(N(C)C)CCCC(C)C2)c1 (stereo not given)
  10 | 6
> COc1cccc(NC(=O)C2(C#N)Cc3ccccc3N3CCCC32)c1 (stereo not given)
  8 | 7
> CCOC(=O)c1sc(NC(=O)CC(C)C)nc1C
  9 | 8
> Oc1cccc(-c2nc3c4c(ncn3n2)-c2ccccc2CC42CCCC2)c1
  4 | 2
> CN(C)C(=O)C1CCCN1C(=O)C(=O)Nc1cc(F)cc(F)c1 (stereo not given)
  3 | 1
> CS(=O)(=O)N1CCN(c2ccc([N+](=O)[O-])c(N3CCc4ccccc4C3)c2)CC1
  3 | 2
> O=C(C1CCCCC1)N1CCN(Cc2nc(-c3ccsc3)no2)CC1
  6 | 3
> O=C(NC1CC1)C1CCN(C2CCN(Cc3cnc(N4CCCC4)s3)CC2)CC1
  1 | -1
> COCc1cnc2c(c1SCc1ccccn1)c(=O)n(C)c(=O)n2C
  2 | 9
> Clc1ccc(-c2cc(N3CCN(Cc4cccnc4)CC3)n3nccc3n2)cc1
  21 | 2
> Oc1cccc(CN2CCN(c3nccc(CCC(F)(F)F)n3)CC2)c1
  8 | 5
> COc1ccc(-c2cc(COC(=O)c3cc4ccccc4o3)no2)cc1OC
  0 | -1
> CC(C)n1cc(C(=O)NC2CCCCCC2)c(=O)c(C(=O)N2CCSCC2)c1
  3 | -1
> O=C(c1ccc(F)c(F)c1)N1CCOC(COCc2c(Cl)cccc2Cl)C1 (stereo not given)
  3 | 0
> NC(=O)C1CCCCN1C(=S)NC1CCCCC1 (stereo not given)
  -5 | -6
> CCCCn1c(=O)c2c(nc3n2CC(C)CN3c2ccc(CC)cc2)n(C)c1=O (stereo not given)
  3 | 9
> O=C(Nc1nc(-c2ccccc2)ns1)c1ccncc1
  1 | 4
> Cc1ccc2sc(NNC(=O)c3ccccc3)nc2c1C
  1 | -2
> Cc1ccc(C(=O)N2CCC(C(=O)Nc3cccc(-c4nnc(C)s4)c3)CC2)cn1
  4&2 | 0&-1
> COc1ccc(-c2cc(NCC3CCCCC3)n3ncnc3n2)cc1
  23 | 10
> C/C(C=C(C#N)C#N)=C/C(C#N)C#N
  18 | 24
> NC1c2ccccc2-c2ccccc21
  3 | 0
> CC1=NN(c2ccccc2)C(=O)C1N=Nc1nc2ccccc2n1C (stereo not given)
  -10 | -22
> CC(Cc1cccnc1)Nc1nc(C2CCCC2)nc2c1cnn2C (stereo not given)
  1 | 7
> COc1ccccc1Oc1ncccc1CNC(=O)c1ccccc1SC
  4 | 3
> CC(Sc1nc(N)nc2nc[nH]c12)C(=O)N[C@H]1CCOC1=O (stereo not given in full)
  5 | 4
> Cc1ccnc(SCc2cc(=O)c(OC(=O)c3ccc(F)cc3)co2)n1
  -14 | -9
> COCCn1c(=NC(=O)C2CCCN2S(=O)(=O)c2cccs2)sc2cc(F)cc(F)c21 (stereo not given)
  5 | 1
> NC(=S)N=Nc1c2[nH]c3ccccc3nc-2c2ccccc12
  10 | 7
> Cc1ccc(N2CCN(C(=O)c3ccccc3F)C(C)C2=O)cc1C (stereo not given)
  -8 | 1
> Cc1ccc(-c2c(C)oc(C)c2C(=O)NC2c3ccccc3-c3ccccc32)cc1
  0 | -7
> O=C(Nc1ccc2[nH]cc(CCN3CCN(c4cccc(C(F)(F)F)c4)CC3)c2c1)C1C[C@H]1c1ccccc1 (stereo not given in full)
  19 | 8
> Cc1cc(=O)[nH]c(-n2nc(C)cc2NC(=O)Nc2ccccc2)n1
  -16 | -17
> CN(C)P(=NC(=S)Nc1ccccc1)(N(C)C)C12CC3CC(CC(C3)C1)C2
  12 | 9
> Cc1csc(NC(=O)c2sc(-c3cccs3)nc2C)n1
  25 | 14
> Cc1ccc(NC(=O)CN2CCN(C(=O)c3ccncc3)CC2)cc1
  0 | 0
> CCCCCC(=O)N1CCN(c2nc(Cc3ccccc3)nc3onc(-c4ccccc4)c23)CC1
  1 | 12
> CCCCc1noc(CN2C(=O)S/C(=C/c3cccs3)C2=O)n1
  8 | 5
> CNC(=O)CC1C(=O)NCCN1Cc1nc2ccccc2n1C(C)C (stereo not given)
  20 | 17
> CCCCN(C)S(=O)(=O)c1ccc2c(c1)nc(SCC(N)=O)n2C1CCCC1
  4 | 0
> CCCCN(CC(=O)Nc1cc(C(C)(C)C)nn1-c1ccc(C)cc1)C(=O)Nc1ccccc1F
  11 | 22
> Cc1ccc(C(=O)Nc2cccc(Cl)c2C(N)=O)c(C)n1
  7 | 6
> CCCCNC(=S)NN=Cc1cccs1
  3 | 1
> Cc1ccc(C)c(S(=O)(=O)NCCn2ncc3c(N4CCCCCC4)ncnc32)c1
  2 | 0
> Cc1cc(C(=O)NNC(=O)Cc2csc(C)n2)c(C)o1
  4 | 12
> CCCOc1ccc(C(=O)N2CCC(C(O)(c3ccccc3)c3ccccc3)CC2)cc1
  -4 | -12
> C=c1cc(C)n(CC(=O)Nc2cc(C)ccc2C)c(=O)c1=C1N=C(c2ccc(Cl)cc2)NO1
  6 | -3
> O=c1nc(SCc2ccccc2F)nc2ccccn12
  7 | 6
> Cc1ccc(NC(=O)Nc2ccc(N3CCCC3)c(C(=O)NCCc3ccccc3)c2)c(C)c1
  5 | 3
> COc1cc(C(C)=O)ccc1OCC(O)Cn1nc(C)c(C(C)=O)c1C (stereo not given)
  8 | 7
> CC1=C(C)C(=NOS(=O)(=O)c2ccccc2)C=C(Br)C1=O
  0 | -2
> Cc1ccc(C)c(Cn2nc(-c3cccs3)c3sc(C)nc3c2=O)c1
  14 | 9
> CC(c1ccc(Cl)cc1)N1CCN(C(=O)c2n[nH]c(=O)[nH]2)CC1 (stereo not given)
  5 | 3
> COc1cccc(CN(C)Cc2nc(-c3ccco3)no2)c1
  5 | 3
> CC(Oc1ccc(C#N)cc1)C(=O)NN1C(=O)NC2(CCCCC2)C1=O (stereo not given)
  3 | 1
> COc1ccc(NC(=O)NC(=O)COc2ccc(C#N)cc2Cl)cc1
  -2 | -3
> C=CCNC(=O)NC1(C)CCS(=O)(=O)C1 (stereo not given)
  1 | 2

Quoted from the listing:
NPYLR7 agonist max-min, `CCCOc1ccc(C(=O)N2CCC(C(O)(c3ccccc3)c3ccccc3)CC2)cc1` = -12
NPYLR7 agonist max-min, `C=CCNC(=O)NC1(C)CCS(=O)(=O)C1` (stereo not given) = 2

More compounds.
Second line of a record: NPYLR7 agonist | NPYLR7 agonist max-min
> CC(=O)OC1CC2CCCCC2(C)C2CC(O)C(C)(C3SCCS3)CC12 (stereo not given)
  -3 | -4
> CCCOC(=NCCOC)NC(=O)c1cccc(OC)c1
  -5 | 2
> NC(=O)C1CCN(C(=O)c2ccc(OCc3nc(C4CC4)cs3)cc2)CC1
  6 | 1
> COCCn1cnnc1CN(C)c1nc(C(C)(C)C)nc2c1cnn2C
  -6 | -12
> CC(C(=O)c1cccc(Cl)c1)n1cnc(-c2ccccc2)cc1=O (stereo not given)
  -9 | -12
> COCC1(NC(=O)c2ccc(=O)[nH]c2)CCCC1
  8 | 7
> CC(Cc1cccc(C(F)(F)F)c1)C(=O)NCC1(O)CCS(=O)(=O)CC1 (stereo not given)
  5 | 2
> COc1cc2c(cc1CN1CC3(CCNCC3)CC1C(=O)O)OCO2 (stereo not given)
  5 | 4
> C=CCn1c(SCC(=O)NCC2(N3CCOCC3)CCCCC2)nc2sc(C)c(C)c2c1=O
  -6 | -5
> CCOc1ccccc1OCC(=O)OC1CCOC1=O (stereo not given)
  13 | 10
> CCOC(=O)c1c(NC(=O)c2ccc(F)cc2)sc(C(=O)Nc2ccc3c(c2)OCO3)c1C
  -4 | -11
> Cc1nc(NC2CC(=O)N(Cc3cccc(F)c3)C2)c2ccsc2n1 (stereo not given)
  12 | 8
> Cn1c(C(=O)O)ccc1-c1cccc(Br)c1
  -5 | -5
> CC(=CC(=O)OCC(=O)NC1CC1)C(=O)OCC(=O)NC1CC1
  2 | 1
> Nc1nn(CC2CC2)c2ccccc12
  4 | 3
> CC(C)NC(=O)NC(=O)COC(=O)c1cc(S(=O)(=O)N2CCOCC2)ccc1F
  9 | 6
> O=C(NCc1nnc(SCC(=O)N2CCc3ccccc32)n1-c1ccc(F)cc1)c1cccs1
  3 | 3
> CSC(C)C(=O)Nc1ccc(Br)cc1 (stereo not given)
  8 | 4
> O=C1CCCc2cc(C(=O)Cn3nc(-c4ccc(F)cc4)oc3=O)ccc2N1
  8 | 5
> Cc1csc(SCc2cc(=O)c(OC(=O)c3c(F)cccc3F)co2)n1
  20 | 4

Full records, quoted from the list.
COc1ccc(NC(=O)NC(=O)COc2ccc(C#N)cc2Cl)cc1 reads NPYLR7 agonist: -2; NPYLR7 agonist max-min: -3
Cc1ccc(NC(=O)CN2CCN(C(=O)c3ccncc3)CC2)cc1 reads NPYLR7 agonist: 0; NPYLR7 agonist max-min: 0

Gathered by group, those above with a furan ring, fused or not (5)
Second line of a record: NPYLR7 agonist | NPYLR7 agonist max-min
> O=C(c1ccco1)N(Cc1cccc(C(F)(F)F)c1)CC1CC(c2ccccc2Cl)=NO1 (stereo not given)
  -2 | 7
> COc1ccc(-c2cc(COC(=O)c3cc4ccccc4o3)no2)cc1OC
  0 | -1
> Cc1ccc(-c2c(C)oc(C)c2C(=O)NC2c3ccccc3-c3ccccc32)cc1
  0 | -7
> Cc1cc(C(=O)NNC(=O)Cc2csc(C)n2)c(C)o1
  4 | 12
> COc1cccc(CN(C)Cc2nc(-c3ccco3)no2)c1
  5 | 3

Next structures:
Second line of a record: NPYLR7 agonist | NPYLR7 agonist max-min
> CC1CN(CCNC(=O)NCCNc2cnccn2)CC(C)O1 (stereo not given)
  -1 | 18
> OCC1(CCc2ccccc2)CCCNC1 (stereo not given)
  5 | 3
> Cn1c(Cn2c(-c3cccnc3)noc2=O)cc(=O)n(C)c1=O
  14 | 11
> COCc1n[nH]c(C)c1Br
  1 | 34
> CCCC(NC(=O)C(C)Sc1nncn1C1CC1)c1ccccc1 (stereo not given)
  0 | -1
> CC(C)c1nc(CNCC2CCN(CCO)CC2)no1
  12 | 7
> COc1cc2cc(C(=O)N3CCC(C(N)=O)(N4CCCCC4)CC3)[nH]c2cc1OC
  -14 | -18
> O=C(CSc1nnc2ccc(-c3cccnc3)nn12)Nc1nc2ccccc2s1
  -15 | -6
> COCc1cc(NCc2cccnc2Oc2ccc(C)nc2)ncn1
  0 | -1
> O=C(Nc1cccc(-c2nc3ccccc3o2)c1)C1CC1
  7 | 12
> CC(=O)N(CN1C(=O)c2ccccc2C1=O)c1ccc2ccccc2c1
  -3 | -6
> COc1ccc(C2=NN(S(C)(=O)=O)C(c3cccc(OC)c3OC)C2)cc1 (stereo not given)
  -4 | -5
> Clc1cc2c(c(CN3CCOC(c4ccccc4)C3)c1)OCOC2 (stereo not given)
  10 | 5
> NC(=O)C1CCN(C(=O)C2c3ccccc3C(=O)N(c3ccccc3)C23CCCC3)CC1 (stereo not given)
  1 | 39
> CS(=O)(=O)c1ccc(F)cc1
  18 | 22
> CCOC(=O)C1(C)CCN1C(=O)c1cccs1 (stereo not given)
  3 | 0
> Cc1c(Br)cnn1CC(=O)N1N=CCC1(O)C(F)(F)F (stereo not given)
  0 | 54
> COc1nc(-c2ccco2)n(-c2cccc(NC(=O)c3ccc(C)cc3)c2)n1
  31 | 26
> CCn1cc(C(CC(=O)NCCCOC)c2cc(OC)cc(OC)c2)c2ccccc21 (stereo not given)
  8 | 12
> CC(=O)NC(C)(C)c1noc(CC2CCc3ccccc32)n1 (stereo not given)
  1 | 0
> O=C(C1=C(O)C(=O)N(c2nncs2)C1c1cccs1)c1cccs1 (stereo not given)
  28 | 25
> Cc1csc(SCc2ccc(C(=O)N3C4CCC3CC(Oc3ccc(F)cc3F)C4)cc2)n1 (stereo not given)
  6 | 19
> COc1ccc(CN2C(=O)CC(C(=O)Nc3cccc(C)c3)SC2=Nc2ccc(F)cc2)cc1 (stereo not given)
  11 | 7
> Cc1ccc(NC2CCCN(C(=O)C3CCCCC3)C2)cc1C (stereo not given)
  -3 | -3
> c1ccc2[nH]c(-c3ccc(Sc4nnnn4C4CCCC4)nc3)nc2c1
  10 | 14
> NC(=O)CSc1nc2c(c(=O)n1-c1ccc(OC(F)(F)F)cc1)SCC2
  -2 | -8
> COCCc1noc(CN2C[C@@H]3C4CCC(CC4)[C@@H]3C2)n1
  3 | 2
> COc1ccccc1N1CCN(C(=O)c2cc(-c3ccccc3F)nc3cc(C(C)(C)C)nn23)CC1
  -5 | 2
> Cc1nc2ccccc2c(=O)n1-c1cccc(NC(=O)CC2CCCCC2)c1
  7 | 5
> CCN1C(=S)NC(c2ccc(NC(=O)Nc3cccc(C#N)c3)cc2)C(C(=O)OCC(C)C)=C1C (stereo not given)
  0 | 5
> CCOC(=O)C1C(=N)OC2=C(C(=O)CC(C)(C)C2)C1c1c(F)cccc1Cl (stereo not given)
  1 | -3
> O=C(c1cn(CC2CCCO2)nn1)N1CCN(c2ccccc2)C(=O)C1 (stereo not given)
  1 | -5
> COC(=O)c1ccc(CN2C(=O)c3cnc(-c4ccc(Cl)cc4)nc3C[C@H]2C)cc1
  19 | 9
> CC(C)c1cc(C2CCN(Cc3cccn3-c3ccncc3)CC2)[nH]n1
  9 | -4
> CC(C)NC(=O)c1csc(COc2ccc(F)cc2)n1
  5 | 3
> CCOC(=O)c1cc(-c2ccc(N3CCN(C(=O)COCc4ccccc4)CC3)cc2)n(-c2ccc(OC)cc2)n1
  4 | -1
> CC(C)Nc1ncccc1C(=O)NCc1ccccn1
  -5 | -11
> CCOC(=O)C1=C(C)N=c2s/c(=C\c3ccccc3OC(C)=O)c(=O)n2C1c1ccc(OC)cc1 (stereo not given)
  13 | 19
> Cc1cc(Br)ncc1NC(=O)c1cnn(-c2ccc(F)cc2)n1
  1 | 10
> O=C(COc1coc(CN2CCc3ccccc3C2)cc1=O)NCc1ccco1
  2 | 0
> CCc1cccc2c1N(C(=O)C(C)S(=O)(=O)C(C)C)CCC2 (stereo not given)
  -1 | 21
> CCNC(=O)c1ccccc1-c1ccc(F)c(CO)c1
  -1 | 2

Bioassay records (PubChem BioAssay)
